High-throughput results: PubChem, Broad Institute
T cruzi repl: inhibitors of intracellular T. cruzi growth, primary screen, luminescence, NIH3T3 host cells | actives 1.4% (n = 300,000) | T. cruzi beta-gal in NIH3T3, 90 h | inhibition, % (no concentration beside the values);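 active = mean inhibition across valid replicates above about 55%, limit read from the data; inconclusive = mean below that limit but half or more replicates reach it; inactive = mean below it, under half of replicates reach it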;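 note: signal also drops with host cell toxicity which is not excluded here; 0% = plate median of DMSO wells and 100% = zero luminescence signal; higher percent means less beta-gal luminescence so fewer parasites; stock transfer was 50 nL into about 50 µL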
FGF22 binding: binders of human FGF22 protein, primary screen, FGF22 synaptogenesis inhibitor project, biophysical, thermal shift, single point; calls only at 9.99 µM; recombinant FGF22 thermal shift, SYPRO orange fluorescence; percent of sucrose octasulfate shift, DMSO zero; actives 1.5% (n = 340,000); Fibroblast growth factor 22 (Homo sapiens), Q9HCT0;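 active = melting point raised past a set limit in the mean and every replicate; inconclusive = no clear call; three in four hits are not shown here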
Target sequence (Q9HCT0 whole entry, looked up): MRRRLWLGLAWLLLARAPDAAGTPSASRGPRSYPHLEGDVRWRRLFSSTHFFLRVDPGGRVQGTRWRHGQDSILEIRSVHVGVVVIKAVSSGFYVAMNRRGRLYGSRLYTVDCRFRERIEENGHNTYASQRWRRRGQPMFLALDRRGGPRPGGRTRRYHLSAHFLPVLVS
Beta apoptosis: inhibitors of cytokine-induced beta cell apoptosis, primary screen, luminescence | actives 0.8% (n = 300,000) | INS-1E cytokine-induced death, ATP luminescence, 48 h; percent of positive-control rescue, neutral wells zero | protection from apoptosis, % (test concentration not listed);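 active = all replicates at 75% or more, or half of them and the mean; inconclusive = half reach 75% but not the mean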;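 note: 0% = cytokine-treated negative control wells and 100% = positive control rescue; higher means more ATP so stronger rescue from cytokine killing; wells of about 40 µL received 100 nL stock; the first replicate is given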
ALR inh: inhibitors of human ALR sulfhydryl oxidase, primary screen, biochemical, H2O2 detection, HRP-luminol luminescence, single point; actives 3.8% (n = 290,000); purified ALR, DTT oxidation; inhibition, % (no concentration beside the values);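 active = mean and each replicate at 75% or more; inconclusive = only one of the two met; inactive = neither met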;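 note: stock transfer was 7.5 nL into about 7.5 µL; 0% = neutral wells and 100% = wells with inactivated enzyme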
Target sequence (P55789 whole entry, looked up): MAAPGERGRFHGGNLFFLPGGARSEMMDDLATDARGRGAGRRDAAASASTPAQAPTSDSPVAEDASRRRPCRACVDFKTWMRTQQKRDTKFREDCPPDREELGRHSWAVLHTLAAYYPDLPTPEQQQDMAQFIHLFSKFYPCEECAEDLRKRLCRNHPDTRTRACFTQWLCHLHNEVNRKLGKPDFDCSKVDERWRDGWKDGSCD
Ecoli rRNA inh: reduced GFP signal of wild-type E. coli, primary screen, bacterial rRNA inhibitor project, GFP/RFP fluorescence, OD600, single point; E. coli WT GFP vs humanized-ribosome RFP mutants, 24 h; stronger effect = lower value; DMSO median 0, no signal -100; actives 1.6% (n = 350,000); AID 720706, 2013; GFP signal change (wild-type ribosome), % (test concentration not listed);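 active = significant combined selectivity score with lowered wild-type GFP, culture density cut under 30%, mutant RFP and density less affected; inactive = any of these conditions unmet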; note: one replicate is shown; some compounds called inactive have numbers as strong as hits
RanGTP-Imp inh: inhibitors of RanGTP-importin-beta interaction, primary screen, biochemical, FRET, CFP-Ran, YFP-importin-beta, homogeneous. Ran GTPase (GTP-bound) - importin-beta complex. cell-free CFP-Ran/YFP-importin-beta FRET ratio. inhibition, % (test concentration not listed). actives 1.1% (n = 300,000);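 active = most replicates above 15%; inconclusive = exactly half above 15%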;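 note: 0% = DMSO wells and 100% = Ran loaded with GDP instead of GTP; wells of about 40 µL received 100 nL stock; the first replicate is given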
Calb FLC: C. albicans growth inhibition with fluconazole, primary screen, CaCi-2 strain, Alamar Blue fluorescence. C. albicans CaCi-2 (fluconazole-resistant clinical isolate) + fluconazole, 48 h. growth inhibition, % (concentration not given with the values). actives 0.57% (n = 300,000);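 active = most replicates above 75%; inconclusive = exactly half above 75%; inactive = most below 75%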;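 note: all wells also contain fluconazole at 8 µg/ml as a sub-toxic cotreatment; 0% = median of DMSO wells and 100% = median of geldanamycin control wells; wells of about 8 µL received 7.5 nL stock; the first replicate is given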
MLL AF4-AF9 inh: inhibitors of AF4 peptide binding to AF9, primary screen, biochemical, AlphaScreen, biotin-AF4 peptide, FLAG-AF9, single point; Protein AF-9 (Homo sapiens), P42568; inhibition, % at 10 µM; actives 0.47% (n = 350,000); AID 651704, 2012;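 active = every replicate reaching a set inhibition limit, whatever the replicate mean, cut at about 25% in these data; inconclusive = mean inhibition reaches that limit but some replicates miss it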;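 note: 0% = plate neutral control median and 100% = total signal loss; the record names both 10 and 1 µM as test concentration; the first replicate is given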
Target sequence (P42568 whole entry, looked up): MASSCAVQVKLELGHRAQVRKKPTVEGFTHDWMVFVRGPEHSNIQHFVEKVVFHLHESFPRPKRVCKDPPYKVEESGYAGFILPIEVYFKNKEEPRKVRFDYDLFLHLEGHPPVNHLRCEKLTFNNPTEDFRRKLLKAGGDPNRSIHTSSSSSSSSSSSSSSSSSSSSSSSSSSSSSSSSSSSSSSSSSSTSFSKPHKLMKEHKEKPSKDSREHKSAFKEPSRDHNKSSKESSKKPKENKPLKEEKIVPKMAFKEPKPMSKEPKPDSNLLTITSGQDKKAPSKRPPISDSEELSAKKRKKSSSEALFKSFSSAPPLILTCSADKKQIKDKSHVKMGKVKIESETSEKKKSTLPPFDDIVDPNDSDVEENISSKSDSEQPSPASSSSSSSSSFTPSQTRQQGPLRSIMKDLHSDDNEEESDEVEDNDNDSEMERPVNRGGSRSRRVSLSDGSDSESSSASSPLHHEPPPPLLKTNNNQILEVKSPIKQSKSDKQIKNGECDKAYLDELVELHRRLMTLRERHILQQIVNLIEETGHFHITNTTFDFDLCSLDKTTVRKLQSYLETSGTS
Ecoli rRNA inh OD600: also measured in Ecoli rRNA inh; calls as there; OD600 change, %; measured here: OD600 growth;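 optical density of the mix in the first replicate; 0 = DMSO median and -100 = no signal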
Ecoli rRNA inh RFP: second read-out of Ecoli rRNA inh, no call of its own (marks repeat the call); RFP signal change, %; measured here: RFP humanized mutant strains;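 first replicate; 0 = DMSO median and -100 = no signal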
Starred values were filed as active, the others as inactive; i = inactive; ? = inconclusive; . = not tested or not shown. Some of the compounds tested; rates above refer to the full screens.

SMILES | T cruzi repl | FGF22 binding | Beta apoptosis | ALR inh | Ecoli rRNA inh | Ecoli rRNA inh OD600 | Ecoli rRNA inh RFP | RanGTP-Imp inh | Calb FLC | MLL AF4-AF9 inh
CC1Cc2ccccc2N1CC(=O)Nc1ccc2c(c1)OC(F)(F)O2 (stereo not drawn) | 17 | . | 3 | 11 | . | . | . | 4.0 | -1 | .
CCCn1c(N2CCC(Cc3ccccc3)CC2)nc2c1c(=O)[nH]c(=O)n2C | 18 | . | 1 | 0 | . | . | . | 6.7 | -10 | .
O=C(COC(=O)CCc1ccccc1)NC12CC3CC(CC(C3)C1)C2 | -7 | i | -3 | -6 | -8 | -10 | 2.0 | -1.4 | -11 | -6.1
Cc1ccc(C(=O)NCCc2nnc3ccc(SCC(=O)N4CCCC4)nn23)cc1 | -16 | i | -1 | 42 | 3 | 1 | -2.0 | 3.5 | -3 | 10
CCN(CC)S(=O)(=O)c1ccc(C(=O)/C=C/c2ccc(-c3ccc([N+](=O)[O-])cc3)o2)cc1 | 41 | i | 7 | -8 | 12 | 8 | 2.7 | -0.9 | -4 | 7.8
CCN(CC)Cc1csc(C(N)=O)c1 | 12 | . | -9 | 4 | . | . | . | 0.4 | -3 | .
CCOc1ccccc1NC(=O)CCc1ccc(C)o1 | 1 | . | -9 | 100* | . | . | . | -2.3 | -2 | .
CCc1ccccc1NC(=O)CNC(=O)CCNC(=O)Nc1ccccc1 | . | i | -4 | . | 1 | 9 | -1.7 | . | . | -2.1
CC(C)CNC(=O)C1CCN(S(=O)(=O)c2ccc3c(c2)OCCO3)CC1 | 11 | i | 2 | 0 | 5 | 10 | -0.6 | 2.2 | . | 0.0
N/C(=N\N=C\c1ccco1)SC1CC(=O)N(c2ccccc2)C1=O (stereo not drawn) | -5 | i | 0 | 0 | -6 | 10 | -9.9 | 1.6 | 15 | 1.7
O=C1NCCCCC1NS(=O)(=O)c1ccccc1 (stereo not drawn) | -5 | i | . | . | 10 | 16 | 0.0 | 3.9 | -2 | 1.3
O=C(N/N=C\C=C\c1ccco1)c1cncc(Br)c1 | 4 | i | . | -39 | 6 | 9 | -1.2 | 1.3 | -6 | .
O=C(NCCCn1ccnc1)C1c2ccccc2Oc2ccccc21 | -12 | . | -4 | 0 | . | . | . | ? | 4 | .
COC(=O)c1sc(S(=O)(=O)NCc2ccccc2)c(C(=O)OC)c1C | -9 | . | -1 | -1 | . | . | . | -0.7 | -6 | .
Cc1ccc(-c2cc(N)nc(-c3ccccc3)c2)cc1 | 5 | i | 3 | -17 | -42 | -69 | 3.3 | 2.9 | 20 | -2.1
COc1ccc(CCNS(=O)(=O)c2ccc(-c3ccc(=O)[nH]n3)o2)cc1OC | 2 | i | . | 0 | 8 | 9 | -2.5 | -3.5 | -17 | 1.6
Cc1cc(C)c2c(N)c(C(=O)NCC3CCCCC3)sc2n1 | 33 | . | -5 | 0 | . | . | . | 4.1 | 5 | .
CCOc1ccc(N2C(=O)CC(SCc3nc4ccccc4[nH]3)C2=O)cc1 (stereo not drawn) | -7 | i | 3 | 2 | 7 | 18 | 1.8 | 2.9 | 13 | -4.1
CCn1ccc(C(=O)Nc2cccc(Cl)c2)n1 | -7 | i | -5 | 1 | -6 | -16 | -5.7 | 3.2 | -5 | 0.5
O=C(c1cc2cc(Cl)ccc2oc1=O)N1CCOCC1 | 7 | . | -5 | -4 | . | . | . | 1.4 | -33 | .
CCOc1ccc2nc(NC(=O)C3CCN(c4cnccn4)CC3)sc2c1 | 61* | . | 1 | -12 | . | . | . | 2.7 | -4 | .
Cc1cc(=O)[nH]c(/N=C(\N)Nc2cccc3ccccc23)n1 | -9 | . | 8 | -2 | . | . | . | -2.6 | 2 | .
O=C1c2ccccc2C(=O)C1c1ccccc1 | -24 | i | . | . | . | . | . | -1.5 | -8 | -1.8
Cc1cc(C)c(OCC(=O)NCC(c2ccco2)N2CCCCC2)c(C)c1 (stereo not drawn) | . | i | -3 | -7 | -16 | -39 | -1.6 | . | . | 3.7
CCCCN(C)CC(O)Cn1cc(/C=C/C(=O)c2cccs2)c2ccccc21 (stereo not drawn) | 53 | . | 5 | -5 | . | . | . | -27 | -5 | .

Next compounds.
SMILES | T cruzi repl | FGF22 binding | Beta apoptosis | ALR inh | Ecoli rRNA inh | Ecoli rRNA inh OD600 | Ecoli rRNA inh RFP | RanGTP-Imp inh | Calb FLC | MLL AF4-AF9 inh
Cc1ccc(C)c(N(C(=O)c2snc(C(N)=O)c2N)C(C(=O)NCC2CCCO2)c2ccc(C)o2)c1 (stereo not drawn) | 8 | i | -7 | 7 | 1 | -12 | 0.8 | 6.3 | -8 | 3.0
CC(C)COc1ccc(C(=O)N(Cc2ccco2)C2CCS(=O)(=O)C2)cc1 (stereo not drawn) | 2 | . | 3 | 0 | . | . | . | 2.0 | -9 | .
Brc1cccc(-c2nnc3sc(CNC4CCCC4)cn23)c1 | -2 | i | -7 | . | 1 | 1 | 4.3 | 6.3 | -8 | 2.3
CCCN(CCC)C(=O)c1ccc2nc(-c3ccc(OC)c(OC)c3)c(-c3ccc(OC)c(OC)c3)nc2c1 | ? | i | 14 | -1 | 1 | -17 | 8.7 | -4.4 | 11 | -9.9
Cc1ccc(CNC(=O)c2ccc3c(=O)c(O)c(-c4ccc(C)cc4)[nH]c3c2)cc1 | 60* | i | 30 | 6 | 3 | 2 | 0.2 | -14 | -10 | -1.3
O=S(=O)(c1ccc(SCc2ccc(Cl)cc2)nc1)N1CCCC1 | . | i | 3 | 0 | 1 | -21 | -6.7 | . | . | -5.9
CCOc1ccc(/C=N/NC(=O)C2(O)c3ccccc3-c3ccccc32)cc1 | -27 | i | -2 | -5 | 4 | 16 | 1.8 | 1.5 | -4 | 0.6
Cc1cc(-c2nnc3n2N=C(c2ccc(-c4ccccc4)cc2)CS3)n[nH]1 | 46 | . | -5 | -11 | . | . | . | -0.5 | 9 | .
O=C(COC(=O)C1CCC1)NCc1ccccc1 | -4 | i | -1 | -1 | 22 | 22 | 1.9 | . | 1 | -1.2
Cc1ccc(NC(=O)COC(=O)Cc2ccccc2)cc1S(=O)(=O)N1CCOCC1 | . | i | 2 | -5 | -7 | -4 | 2.5 | . | . | 0.2
CC(C)c1nnc(NC(=O)C2c3ccccc3Oc3ccccc32)s1 | 18 | . | -3 | -9 | . | . | . | 5.5 | -9 | .
CCN1CCN(CCCOc2ccc(Cl)cc2Br)CC1 | 57* | . | 4 | -4 | 11 | -9 | -0.1 | 0.7 | 2 | 0.4
O=C(OCC(=O)N1CCCCC1)c1cc(NS(=O)(=O)c2ccc(Cl)c([N+](=O)[O-])c2)ccc1O | -17 | i | -3 | 12 | 10 | -8 | -5.8 | -3.0 | 39 | 11
Cc1ccc(C(=O)O/N=C(\N)c2cccc([N+](=O)[O-])c2)cc1 | -2 | i | -11 | 49 | 8 | 6 | 1.1 | -0.3 | -12 | 7.7
COC(=O)c1c(CSc2cccc(C)c2)noc1C(=O)NCc1ccco1 | -1 | i | -7 | -2 | -39 | -48 | -6.7 | -2.5 | -2 | -1.7
O=C(CSc1nnnn1-c1ccccc1)N1CCCc2ccccc21 | 19 | . | -1 | 0 | . | . | . | 1.8 | 8 | .
O=C(CSc1nnc(-c2ccncc2)n1Cc1ccco1)Nc1nc(-c2ccccc2)cs1 | 42 | . | -7 | -6 | . | . | . | 4.7 | 3 | .
COC(=O)Nc1ccc(S(=O)(=O)N2c3ccccc3CCC2C)cc1 (stereo not drawn) | -12 | . | 10 | -1 | . | . | . | 8.7 | 23 | .
CCCCc1nnc(NC(=O)CSCc2cc(=O)n3cc(C)sc3n2)s1 | -14 | i | 1 | -4 | 5 | 9 | -2.6 | 1.1 | -7 | 0.9
COc1ccc(C(CCNCc2ccc(OC(C)C)cc2)C(C)C)cc1 (stereo not drawn) | 33 | i | 57 | 7 | -48* | -29* | -13* | 2.3 | 15 | ?
COc1ccc(/C(C)=N/NC(=O)c2ccc3nc[nH]c3c2)cc1 | 13 | i | -13 | -7 | -3 | 5 | -1.9 | 2.7 | 37 | -4.2
COc1ccc(C2=NN(S(=O)(=O)c3ccccc3)C(c3ccccc3)C2)cc1 (stereo not drawn) | 17 | i | 0 | -4 | -2 | -9 | -4.1 | 1.1 | 2 | -6.3
O=C(Nc1ccc(Cl)cc1)C1CC(=O)n2c(nc3ccccc32)N1 (stereo not drawn) | -3 | . | -7 | -8 | . | . | . | -1.9 | -8 | .
COc1cccc(/C=C2\SC(=O)N(CCC(=O)N3CCC(C(=O)O)CC3)C2=O)c1 | -24 | i | -1 | -4 | -3 | -4 | 0.0 | 0.7 | -1 | 1.3
CCOC(=O)c1c(C2COc3ccccc3O2)csc1NC(=O)c1ccco1 (stereo not drawn) | 29 | . | 22 | 7 | . | . | . | 0.3 | -22 | .

Remaining list, next part:
SMILES | T cruzi repl | FGF22 binding | Beta apoptosis | ALR inh | Ecoli rRNA inh | Ecoli rRNA inh OD600 | Ecoli rRNA inh RFP | RanGTP-Imp inh | Calb FLC | MLL AF4-AF9 inh
COc1ccc(CCNS(=O)(=O)c2cccc3cccnc23)cc1OC | -11 | i | 2 | -14 | 11 | 12 | 1.6 | -0.1 | 6 | -1.6
Cc1ccc(C)c(C(=O)Nc2ccncc2)c1 | 7 | i | -7 | -16 | 6 | 2 | -5.3 | 2.6 | 3 | -2.1
CCOc1ccc(-n2cc(-c3ccccc3)c3c(SC(C)C(=O)OC)ncnc32)cc1 (stereo not drawn) | 17 | i | 1 | -2 | 10 | 2 | 2.8 | 2.1 | 31 | -19
O=C(CCS(=O)(=O)Cc1ccccc1)N1CCN(c2ccccc2)CC1 | -5 | . | 5 | 99* | . | . | . | -2.3 | -12 | .
CCOC(=O)c1c(-c2cccs2)csc1NC(=O)CCCC(=O)O | -3 | i | -3 | -4 | -19 | -10 | -1.5 | 8.1 | 41 | -84
CCC(=O)OCC(=O)Nc1ncc(C(F)(F)F)cc1Cl | 11 | i | -2 | 0 | 0 | 5 | 0.0 | 6.2 | 3 | 2.3
COCCSc1ccccc1C(=O)Nc1nncs1 | -9 | . | 1 | -4 | . | . | . | 3.2 | 1 | .
CC(C)(C)c1ccc(OCC(O)CSc2ncn[nH]2)cc1 (stereo not drawn) | 18 | i | -7 | -5 | 2 | -3 | -2.0 | 3.0 | -9 | 0.5
